# FGF22 binding: shifts melting point of recombinant human FGF22 | recombinant FGF22 thermal shift, SYPRO orange fluorescence; percent of sucrose octasulfate shift, DMSO zero | Q9HCT0 | hit rate 1.5% among 340,000 | calls only at 9.99 µM | AID 651658;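 active = melting point raised past a set limit in the mean and every replicate; inconclusive = no clear call; three in four hits are not shown here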
# Ecoli rRNA inh: selective bacterial rRNA inhibition in E. coli. hit rate 1.6% among 350,000. AID 720706. E. coli WT GFP vs humanized-ribosome RFP mutants, fluorescence, 24 h; active compounds read low; DMSO median 0, no signal -100. GFP signal change (wild-type ribosome), % (concentration not given with the values);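 active = significant combined selectivity score with lowered wild-type GFP, culture density cut under 30%, mutant RFP and density less affected; inactive = any of these conditions unmet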; note: one replicate is shown; some compounds called inactive have numbers as strong as hits
# Vif TR-FRET: inhibitors of Vif binding to APOBEC3G peptide, primary screen, biochemical, TR-FRET, GST-Vif 1-94, biotin-A3G peptide, dose response retest (AID 1117319); TR-FRET GST-Vif / biotin-A3G peptide binding; higher % means a stronger effect; test concentration not given here; strong numbers were not always called active; one-dose inhibition, %; IC50 in µM for titrated hits; hit rate 0.57% among 260,000;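 active = above the screen mean plus three standard deviations and confirmed in dose response; inconclusive = results disagree or hit not tested in dose response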;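 note: Vif residues 1-94 fused to GST binding biotinylated APOBEC3G peptide 110-148; 0% = full assay without inhibitor and 100% = GST in place of GST-Vif; retest series ran down from 100 µM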
# ALR H2O2 inh: inhibitors of human sulfhydryl oxidase ALR; inhibition, % (concentration not given with the values); P55789; purified ALR, DTT oxidation, H2O2 HRP-luminol luminescence; hit rate 3.8% among 290,000; AID 485317;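 active = mean and each replicate at 75% or more; inconclusive = only one of the two met; inactive = neither met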;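 note: stock transfer was 7.5 nL into about 7.5 µL; 0% = neutral wells and 100% = wells with inactivated enzyme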
# AF4-AF9 inh: inhibitors of human MLL-AF4/AF9 interaction. P42568. hit rate 0.47% among 350,000. AlphaScreen, biotin-AF4 peptide binding to FLAG-AF9. inhibition, % at 10 µM;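 active = every replicate reaching a set inhibition limit, whatever the replicate mean, cut at about 25% in these data; inconclusive = mean inhibition reaches that limit but some replicates miss it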;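 note: 0% = plate neutral control median and 100% = total signal loss; the record names both 10 and 1 µM as test concentration; the first replicate is given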
# Target sequence (P42568 whole entry, looked up): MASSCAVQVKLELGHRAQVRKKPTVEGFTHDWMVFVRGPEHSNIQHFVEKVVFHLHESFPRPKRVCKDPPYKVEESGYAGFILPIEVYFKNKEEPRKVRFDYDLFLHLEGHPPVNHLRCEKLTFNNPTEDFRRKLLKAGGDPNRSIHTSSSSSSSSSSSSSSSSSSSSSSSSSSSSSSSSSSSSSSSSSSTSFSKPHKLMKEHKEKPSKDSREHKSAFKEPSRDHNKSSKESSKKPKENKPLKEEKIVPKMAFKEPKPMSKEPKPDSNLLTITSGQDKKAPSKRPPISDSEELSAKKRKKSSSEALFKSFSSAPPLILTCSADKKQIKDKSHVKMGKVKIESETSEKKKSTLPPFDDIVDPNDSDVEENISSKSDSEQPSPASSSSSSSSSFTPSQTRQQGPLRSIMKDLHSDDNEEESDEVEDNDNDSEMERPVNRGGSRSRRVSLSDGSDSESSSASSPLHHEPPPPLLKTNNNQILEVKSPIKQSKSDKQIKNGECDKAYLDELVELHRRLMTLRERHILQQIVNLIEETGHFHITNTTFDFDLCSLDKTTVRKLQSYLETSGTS
# Ecoli growth: E. coli growth inhibition; hit rate 0.21% among 330,000; OD600 absorbance (no concentration beside the values); Escherichia coli growth, OD600, 23 h; active compounds read low;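 active = OD600 absorbance below the run mean of sample wells minus 3.6 SD, in any replicate, cut at about 0.56 in these data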;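 note: stock transfer was 300 nL into about 60 µL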
# HNF4A DNA FP: change in binding of human HNF4 alpha to DNA; hit rate 0.3% among 360,000; P41235; AID 1224865; activity change, % at 10 µM; HNF4a-FITC DNA binding, fluorescence polarization, 1 h; in the data active = activity change above about 30%, passing the limit was not always enough;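 note: controls were the assay level and a saturating level of protein; the project sought stronger binding though the title names inhibitors; some compounds called inactive have numbers as strong as hits; positive values seem to mean higher polarization but the record does not say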
# Target sequence (P41235 whole entry, looked up): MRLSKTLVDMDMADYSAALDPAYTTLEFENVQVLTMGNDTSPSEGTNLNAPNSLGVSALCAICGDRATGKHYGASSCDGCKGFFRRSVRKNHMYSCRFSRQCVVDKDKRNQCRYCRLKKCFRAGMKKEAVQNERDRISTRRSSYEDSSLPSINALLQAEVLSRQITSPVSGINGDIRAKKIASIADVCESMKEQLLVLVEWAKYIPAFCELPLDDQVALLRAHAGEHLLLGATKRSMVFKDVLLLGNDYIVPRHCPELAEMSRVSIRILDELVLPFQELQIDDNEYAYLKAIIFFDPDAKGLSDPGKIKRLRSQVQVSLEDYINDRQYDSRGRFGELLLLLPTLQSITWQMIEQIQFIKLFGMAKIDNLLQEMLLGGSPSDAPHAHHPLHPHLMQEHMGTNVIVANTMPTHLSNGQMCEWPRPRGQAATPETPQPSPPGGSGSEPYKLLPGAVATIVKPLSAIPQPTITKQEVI
# Ecoli rRNA inh OD600: second read-out of Ecoli rRNA inh, no call of its own (marks repeat the call); OD600 change, %; measured here: OD600 growth;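 optical density of the mix in the first replicate; 0 = DMSO median and -100 = no signal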
# Ecoli rRNA inh RFP: recorded beside Ecoli rRNA inh, whose call it bears; RFP signal change, %; measured here: RFP humanized mutant strains;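 first replicate; 0 = DMSO median and -100 = no signal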
# An asterisk follows results filed as active; i = inactive; ? = inconclusive; / = not tested or not shown; & = joins results of further samples.
SMILES,FGF22 binding,Ecoli rRNA inh,Ecoli rRNA inh OD600,Ecoli rRNA inh RFP,Vif TR-FRET,ALR H2O2 inh,AF4-AF9 inh,Ecoli growth,HNF4A DNA FP
Cc1ccccc1OCCn1cc(C(=S)N2CCCC2)c2ccccc21,/,/,/,/,/,0.1,/,0.727,3.0
CC(C)CCNC(=O)C(c1ccc(O)cc1)N(C(=O)C1COc2ccccc2O1)c1cccc(O)c1 (stereo not drawn),i,-45.5,-73.3,-1.4,2.7%,-30.4,2.8,0.631,3.2
CCOC(=O)c1nc(NCc2ccccc2)sc1C,i,-10.8,-17.8,0.9,-3.4%,1.0,3.7,0.679,0.8
O=C(C[C@@H]1CC[C@@H]2[C@H](COC[C@H](O)CN2C(=O)Nc2cccc(F)c2)O1)NCCCN1CCOCC1,i,-15.4,-17.6,-0.4,/,/,-2.2,/,/
C/C=C/c1ccc([C@H]2[C@@H](CO)N3C(=O)CN(C(=O)NC4CCCCC4)C[C@@H]23)cc1,i,-0.4,14.9,-3.7,/,/,-1.0,/,/
CC1CC(C)CN(CC(=O)Nc2ccc(S(N)(=O)=O)cc2)C1 (stereo not drawn),/,/,/,/,-9.0%,-4.9,/,0.756,2.3
O=C(C[C@H]1C=C[C@H](NC(=O)Cc2ccccn2)[C@@H](CO)O1)NCCc1ccccc1,i,1.6,0.3,-0.1,/,/,-1.4,/,/
Cc1cc(C)c(OCCCCn2cnc3ccccc3c2=O)c(C)c1,/,/,/,/,-8.6%,-1.8,/,0.717,-1.0
COC(=O)c1cccc(NC(=O)CN2C(=O)c3ccccc3C2=O)c1,i,5.5,-0.6,2.2,/,-9.7,-6.3,0.661,2.7
CCOC(=O)c1nccnc1C(=O)Nc1cccc(C(F)(F)F)c1,i,14.0,-15.1,1.0,0.9%,-0.8,1.3,0.696,8.2
O=C(NCCc1ccccc1)c1ccc(=O)oc1,/,17.6,6.6,-3.4,-1.7%,-5.4,/,0.706,0.3
COc1ccc(NC(=O)c2c(SC)nsc2SC)cc1,/,/,/,/,-6.1%,-15.8,/,0.734,-1.5

# A portion taken from the entries so far, as a working copy:
SMILES,FGF22 binding,Ecoli rRNA inh,Ecoli rRNA inh OD600,Ecoli rRNA inh RFP,Vif TR-FRET,ALR H2O2 inh,AF4-AF9 inh,Ecoli growth,HNF4A DNA FP
COC(=O)c1cccc(NC(=O)CN2C(=O)c3ccccc3C2=O)c1,i,5.5,-0.6,2.2,/,-9.7,-6.3,0.661,2.7
CCOC(=O)c1nccnc1C(=O)Nc1cccc(C(F)(F)F)c1,i,14.0,-15.1,1.0,0.9%,-0.8,1.3,0.696,8.2

# (list continues)
SMILES,FGF22 binding,Ecoli rRNA inh,Ecoli rRNA inh OD600,Ecoli rRNA inh RFP,Vif TR-FRET,ALR H2O2 inh,AF4-AF9 inh,Ecoli growth,HNF4A DNA FP
CCn1c(=O)n(CC)c2cc(N3CCCC3)c(NC(=O)c3ccc(F)cc3)cc21,i,-5.4,-2.8,1.0,/,99.5*,3.5,/,2.9
C[C@H]1CCCCO[C@H](CN(C)Cc2ccc(C(F)(F)F)cc2)[C@@H](C)CN([C@@H](C)CO)C(=O)c2cc(NC(=O)c3ccncc3)ccc2O1,i,3.0,-13.9,2.3,/,/,2.1,/,/
O=C(N/N=C/c1ccco1)c1cc(-c2cccs2)[nH]n1,i,-1.6,8.4,5.3,/,17.5,3.5,/,2.9
COc1cc(OC)c(OC)cc1/C=N/Nc1nc2ccccc2[nH]1,i,-39.0*,-2.4*,-13.2*,-2.5%,3.7,/,/,0.2
O=S(=O)([N-]c1nc2ccccc2nc1-n1cc[n+](Cc2ccccc2)c1)c1ccc(Br)cc1,i,16.6,6.6,5.0,-9.3%,0.0,1.9,0.683,-3.8
COC(=O)c1ccc(OCC(=O)c2ccccc2OC)cc1,/,-23.4*,-14.4*,-2.7*,-5.9%,-10.0,/,0.676,-1.2
COCCn1c(=O)c2c(nc3n2CC(C)CN3CCc2ccccc2)n(C)c1=O (stereo not drawn),i,-7.3,-2.8,0.4,/,-0.5,3.5,/,-2.0
COC(=O)C[C@H]1CC[C@H](NS(=O)(=O)c2ccc(OC)cc2)[C@@H](CO)O1,i,1.1,-0.5,-3.6,/,/,-2.1,/,/
COc1cc(/C=C(\C#N)c2ccccn2)ccc1OCc1ccccc1Cl,i,-5.2,-5.0,-2.5,/,0.5,10.7,0.693,1.8
CC(=O)N1CCN(C(=O)c2ccc3c(c2)OCCO3)CC1,i,5.5,1.5,1.6,/,-2.9,-0.7,0.681,1.9
Cc1ccc(S(=O)(=O)N(C)C[C@H]2OCCCC[C@@H](C)Oc3ccc(NS(=O)(=O)c4ccc(Cl)cc4)cc3C(=O)N([C@H](C)CO)C[C@@H]2C)cc1,i,2.0,4.1,1.2,/,/,-2.8,/,/
CCOC(=O)C1=C(C)NC2=C(C(=O)CC(c3ccc(OC)c(OC)c3)C2)C1c1ccc(C)o1 (stereo not drawn),/,/,/,/,14.9%,-5.3,/,/,1.7
Cc1ccc(S(=O)(=O)N(C)C)cc1NC(=O)CSc1ncn[nH]1,i,14.5,6.8,2.2,/,-1.9,-1.8,0.696,1.6
Cc1noc(C)c1NC(=O)N[C@@H]1CC[C@H](CC(=O)N2CCCCC2)O[C@H]1CO,i,-1.7,0.9,-3.8,/,/,-0.4,/,/
CC1(C(=O)NS(=O)(=O)C2CC2)CCCN(C(=O)c2ccccc2C(F)(F)F)C1 (stereo not drawn),i,6.8,0.6,2.5,/,/,1.1,/,-0.9
CO[C@H]1CN(C)C(=O)c2cc(NC(=O)NC(C)C)ccc2OC[C@H](C)N(CC2CC2)C[C@@H]1C,i,-1.8,-1.5,0.1,/,/,-4.4,/,/
CNC(=O)C[C@@H]1CC[C@@H]2[C@H](COc3ccc(NC(=O)C4CCCCC4)cc3C(=O)N2C)O1,i,2.7,0.4,-2.4,/,/,-2.8,/,/
Cn1c(=O)n(CC(=O)Nc2ccccc2)c2ccccc21,/,/,/,/,?,-9.9,/,0.688,-1.1
C[C@@H]1CN([C@H](C)CO)C(=O)c2cccc(NC(=O)c3nc4ccccc4s3)c2O[C@H]1CN(C)Cc1ccc(-c2ccccc2)cc1,i,2.2,8.6,3.0,/,/,2.4,/,/
C=CCn1c(=O)c(C(=O)Nc2ccccc2O)c(O)c2ccccc21,/,/,/,/,29.7%,5.0,/,0.748,0.0
CCN(CC(=O)Nc1ccccc1OC)C(=O)CC1CCCC1,i,/,/,/,/,-5.1,-1.5,0.656,-0.5
CC(C)(C)c1ccc(C(=O)NCCN2CCCC2)cc1,i,12.6,-3.9,-2.0,/,-10.3,-2.1,0.71,1.7
Cc1ccc2c(c1)N(CCC(=O)NCCCN1CCCC1)C(=O)CO2,i,3.9,9.8,3.0,/,-17.4,-0.6,0.661,1.6
CCN(CC)S(=O)(=O)c1ccc(-c2nnc(SCC(=O)N3c4ccccc4CC3C)o2)cc1 (stereo not drawn),/,/,/,/,-4.8%&-4.1%,-2.6,/,0.696,0.4
COc1cc(/C=C/C(=O)O)cc(S(=O)(=O)NCc2ccco2)c1OC,i,11.3,-0.8,1.6,10.8%,-20.8,-7.3,0.72,-3.2
CCS(=O)(=O)N1CCN(Cc2c[nH]c3ccccc23)CC1,i,13.1,14.7,3.3,3.4%,18.3,3.7,0.705,0.2
CC1=NN(C(=O)c2c(Br)cnn2C)C(O)(C(F)(F)F)C1 (stereo not drawn),/,/,/,/,6.4%,-7.6,/,0.758,0.5
COc1cccc(-c2cc(C(=O)Nc3cccnc3)no2)c1,/,/,/,/,-10.9%,-9.7,/,0.682,-2.1
Cc1cccc2cc(CN(CC3CCCO3)C(=O)NC3CCCCC3)c(=O)[nH]c12 (stereo not drawn),/,/,/,/,1.6%,13.7,/,0.711,-0.8
CCCSc1nnc2n(C)c(=O)c3c4c(sc3n12)CCC4,/,/,/,/,9.2%,9.6,/,0.736,0.2
Nc1nnc(SCC(=O)Nc2ccc(N3CCOCC3)c(Cl)c2)s1,i,1.6,-13.2,-2.9,-1.9%,24.5,1.4,0.69,4.3
COc1ccc(S(=O)(=O)N(C)C[C@H]2OCCCC[C@@H](C)Oc3ccc(NC(=O)NC4CCCCC4)cc3C(=O)N([C@@H](C)CO)C[C@H]2C)cc1,i,-1.3,-2.4,-1.2,/,/,0.0,/,/
COc1cccc(CNC(=O)C2CCN(S(=O)(=O)c3ccc(C)cc3)CC2)c1,i,-7.4,-2.7,-6.0,-9.7%,-9.7,-0.4,0.684,-0.9
CC(C)OC(=O)Cn1nnc(-c2ccccc2)n1,/,/,/,/,24.0%,12.9,/,0.691,-4.1
C[C@H](CO)N1C[C@H](C)[C@@H](CN(C)S(=O)(=O)c2cn(C)cn2)Oc2ccc(NS(=O)(=O)c3ccc(Cl)cc3)cc2C1=O,i,0.1,4.2,-1.2,/,/,-1.8,/,/
CCc1ccc(C2C(=O)c3ccccc3C2=O)cc1,i,9.4,0.6,1.4,/,3.5,-2.0,0.67,1.6
C[C@H](CO)N1C[C@H](C)[C@H](CN(C)C(=O)C2CCCCC2)Oc2cc(C#Cc3ccncc3)ccc2S1(=O)=O,i,-5.5,-17.8,2.0,/,/,0.1,/,/
Cc1ccc(NC(=O)[C@@H]2O[C@H](CO)[C@H](O)[C@H](O)[C@H]2O)cc1C(F)(F)F,i,11.6,23.4,3.5,/,/,-4.5,/,-1.7
O=C(O)/C=C/C(=O)N(Cc1ccccc1)Cc1ccco1,i,17.0,14.1,0.0,/,-3.5,-4.5,0.683,-1.8
CC[C@@]1(C(=O)OC)N[C@H](CN(C)S(=O)(=O)c2ccc(-c3ccccc3)cc2)[C@@H]2C(=O)N(Cc3ccccc3)C(=O)[C@@H]21,i,/,/,/,-0.8%,/,-1.1,0.742,-1.2
Cn1ccnc1Sc1nc2c(c(=O)n(C)c(=O)n2C)n1C,i,2.8,6.3,-2.4,-8.3%,-2.0,-0.4,0.726,1.8
CC(=O)N(C)C[C@@H]1Oc2ncc(-c3ccc(C#N)cc3)cc2C(=O)N([C@H](C)CO)C[C@H]1C,i,6.1,18.6,-1.2,/,/,-7.0,/,/

# Compounds listed so far that have fluorine (seven):
SMILES,FGF22 binding,Ecoli rRNA inh,Ecoli rRNA inh OD600,Ecoli rRNA inh RFP,Vif TR-FRET,ALR H2O2 inh,AF4-AF9 inh,Ecoli growth,HNF4A DNA FP
O=C(C[C@@H]1CC[C@@H]2[C@H](COC[C@H](O)CN2C(=O)Nc2cccc(F)c2)O1)NCCCN1CCOCC1,i,-15.4,-17.6,-0.4,/,/,-2.2,/,/
CCOC(=O)c1nccnc1C(=O)Nc1cccc(C(F)(F)F)c1,i,14.0,-15.1,1.0,0.9%,-0.8,1.3,0.696,8.2
CCn1c(=O)n(CC)c2cc(N3CCCC3)c(NC(=O)c3ccc(F)cc3)cc21,i,-5.4,-2.8,1.0,/,99.5*,3.5,/,2.9
C[C@H]1CCCCO[C@H](CN(C)Cc2ccc(C(F)(F)F)cc2)[C@@H](C)CN([C@@H](C)CO)C(=O)c2cc(NC(=O)c3ccncc3)ccc2O1,i,3.0,-13.9,2.3,/,/,2.1,/,/
CC1(C(=O)NS(=O)(=O)C2CC2)CCCN(C(=O)c2ccccc2C(F)(F)F)C1 (stereo not drawn),i,6.8,0.6,2.5,/,/,1.1,/,-0.9
CC1=NN(C(=O)c2c(Br)cnn2C)C(O)(C(F)(F)F)C1 (stereo not drawn),/,/,/,/,6.4%,-7.6,/,0.758,0.5
Cc1ccc(NC(=O)[C@@H]2O[C@H](CO)[C@H](O)[C@H](O)[C@H]2O)cc1C(F)(F)F,i,11.6,23.4,3.5,/,/,-4.5,/,-1.7

# The list is partial; count on the stated rates, not on these rows.
